Screens (PubChem)
Sa growth 42C: blocks Staphylococcus aureus growth | 170,000 tested, 0.53% active | S. aureus RN4220 growth, OD600, 20 h, 42 °C; hits give low values | relative growth, % (test concentration not listed) | AID 720641;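 active = growth at 42 °C up to 50% and 20 or more points under that at 30 °C, or under 10% at both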;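 also: 300 nL library stock went into each well; scaled to the means of positive and negative controls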
GIV Gai3 FP: inhibitors of GIV GBA-motif binding to rat Galpha-i3 | Galpha-i3/FITC-GIV peptide fluorescence polarization, 90 min; hits give low values; scaled: aluminum fluoride 0%, vehicle 100% | percent of control (FP), % (no concentration beside the values) | AID 1224905 | 210,000 tested, 0.42% active;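 active = replicate mean at 85% of control or lower, very high polarization wells dropped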;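 also: wells of about 15 µL received 100 nL stock; the first replicate is given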
Target sequence (P08753 whole entry, looked up): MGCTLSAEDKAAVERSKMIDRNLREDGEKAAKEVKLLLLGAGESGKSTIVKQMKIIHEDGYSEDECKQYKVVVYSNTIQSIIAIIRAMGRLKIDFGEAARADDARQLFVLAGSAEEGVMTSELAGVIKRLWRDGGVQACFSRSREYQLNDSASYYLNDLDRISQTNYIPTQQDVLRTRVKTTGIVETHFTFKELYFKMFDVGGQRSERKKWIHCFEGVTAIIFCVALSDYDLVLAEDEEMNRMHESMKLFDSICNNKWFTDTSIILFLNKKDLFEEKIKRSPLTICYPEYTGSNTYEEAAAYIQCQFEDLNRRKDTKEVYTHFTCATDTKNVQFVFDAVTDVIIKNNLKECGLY
HCMV NEC inh: disrupts HCMV UL50-UL53 complex binding; HTRF UL50-UL53 interaction, normalized percent inhibition; inhibition, % (test concentration not listed); 190,000 tested, 0.15% active; AID 1918969;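 active = both replicates at 50% or more, plus weaker picks with an unusually low signal ratio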;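 also: stock transfer was 100 nL into about 20 µL; 0% = negative control wells and 100% = wells with untagged competitor protein; inactives centre near -12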
Sa growth 42C second temp: recorded beside Sa growth 42C, whose call it bears; relative growth, %; measured here: growth at 30 °C;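 optical density after 20 h as mean of two plates; 100% = untreated growth and lower means inhibition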
* = called active by the depositor; / = not tested or not shown.

SMILES | Sa growth 42C | Sa growth 42C second temp | GIV Gai3 FP | HCMV NEC inh
O=C(CSc1nc2ccccc2n1Cc1ccc(F)cc1)N1CCN(c2ccc(F)cc2)CC1 | 85 | 95 | 105 | /
c1nc(N2CCN(Cc3ccc4c(c3)OCO4)CC2)c2c3c(sc2n1)CCCC3 | / | / | 102 | -20
Cc1cc(NC(=O)[C@H](C)NC(=O)c2ccco2)ccc1Br | 108 | 98 | / | -10
CCC1S/C(=N\S(=O)(=O)c2ccccc2)N(C2CCCCC2)C1=O (stereo unspecified) | 104 | 87 | / | -24
O=C1C/C(=N\NC(=S)Nc2ccc(S(=O)(=O)N3CCOCC3)cc2)c2ccccc21 | 68 | 65 | / | -20
COc1ccc(C2C3=C(CC(c4ccc(O)cc4)CC3=O)Nc3onc(C)c32)cc1O (stereo unspecified) | / | / | 108 | -5
Cc1ccc(NC(=O)CSc2cn(CC(=O)N3CCCC3)c3ccccc23)cc1Cl | 111 | 119 | 107 | /
COc1ccc(NC(=O)c2oc3ccccc3c2NC(=O)Cc2coc3ccc(C)cc23)cc1 | 105 | 88 | 109 | -12
CCCCSc1cc2c(cc1NC(=O)CC)n(C)c(=O)n2C | / | / | 109 | -26
CN1C=NS(=O)(=O)c2ccccc21 | 96 | 98 | 101 | 8
O=C(Nc1ccc2oc(-c3cccnc3)nc2c1)c1cccs1 | 92 | 83 | / | -12
CCC1CCCCN1CCCN1C(=O)c2cc3sccc3n2CC1(C)C(=O)NC1CCCCC1 (stereo unspecified) | / | / | 98 | -3
O=C(O)CCC(=O)NCc1ccc(C(=O)O)cc1 | 92 | 77 | 98 | -32
OCC(CO)(CO)N=Cc1c(O)ccc2ccccc12 | 107 | 70 | 104 | 36
COc1ccc(OC)c(CCNc2nc3cc(OC)c(OC)cc3c3nc(-c4cccnc4)nn23)c1 | 92 | 101 | 97 | 9
COc1ccc(N2CCN(C(=O)CCc3c(C)nc4cc(-c5ccc(Cl)cc5)nn4c3C)CC2)cc1 | 98 | 99 | 96 | -3
CCc1ccc(NC(=O)C(C)Sc2cccc[n+]2[O-])cc1 (stereo unspecified) | 101 | 83 | / | -13
CC1CCCC(NC(=O)COC(=O)c2ccccc2F)C1C (stereo unspecified) | 94 | 89 | / | -22
O=c1c2c(nc3nc(CNc4ccccc4Cl)[nH]n13)CCC2 | / | / | 101 | -16
O=C(CN1C(=O)C2CC=CCC2C1=O)NCc1cccs1 (stereo unspecified) | 95 | 104 | / | 9
NC(=O)c1ccccc1NS(=O)(=O)c1cccc(C(F)(F)F)c1 | 100 | 95 | / | -11
Cc1nonc1NC(=O)c1ccc(Cl)cc1 | / | / | 96 | -14
CCC(C)C(NS(=O)(=O)c1cccc(C(F)(F)F)c1)C(=O)NCc1ccccc1 (stereo unspecified) | 98 | 92 | / | 5
Cc1cc(F)ccc1NS(=O)(=O)c1cn(C)cn1 | / | / | 103 | -17
CCc1nn(CC(=O)N2CCN(c3cccc(OC)c3)CC2)c(=O)c2cc3occc3n12 | 104 | 97 | 99 | -6

6 of the compounds above, comma-delimited:
structure,Sa growth 42C,Sa growth 42C second temp,GIV Gai3 FP,HCMV NEC inh
COc1ccc(C2C3=C(CC(c4ccc(O)cc4)CC3=O)Nc3onc(C)c32)cc1O (stereo unspecified),/,/,108,-5
Cc1ccc(NC(=O)CSc2cn(CC(=O)N3CCCC3)c3ccccc23)cc1Cl,111,119,107,/
COc1ccc(NC(=O)c2oc3ccccc3c2NC(=O)Cc2coc3ccc(C)cc23)cc1,105,88,109,-12
CCCCSc1cc2c(cc1NC(=O)CC)n(C)c(=O)n2C,/,/,109,-26
CN1C=NS(=O)(=O)c2ccccc21,96,98,101,8
O=C(Nc1ccc2oc(-c3cccnc3)nc2c1)c1cccs1,92,83,/,-12

Reformatted comma-delimited: part of the list above
canonical_smiles,Sa growth 42C,Sa growth 42C second temp,GIV Gai3 FP,HCMV NEC inh
O=C(CSc1nc2ccccc2n1Cc1ccc(F)cc1)N1CCN(c2ccc(F)cc2)CC1,85,95,105,/
c1nc(N2CCN(Cc3ccc4c(c3)OCO4)CC2)c2c3c(sc2n1)CCCC3,/,/,102,-20
Cc1cc(NC(=O)[C@H](C)NC(=O)c2ccco2)ccc1Br,108,98,/,-10
CCC1S/C(=N\S(=O)(=O)c2ccccc2)N(C2CCCCC2)C1=O (stereo unspecified),104,87,/,-24
O=C1C/C(=N\NC(=S)Nc2ccc(S(=O)(=O)N3CCOCC3)cc2)c2ccccc21,68,65,/,-20

Next section:
SMILES | Sa growth 42C | Sa growth 42C second temp | GIV Gai3 FP | HCMV NEC inh
CC(=O)Nc1ccc2c(c1)C1C=CCC1C(c1ccccc1[N+](=O)[O-])N2 (stereo unspecified) | / | / | 106 | -58
CCN(CC)S(=O)(=O)c1cccc(C(=O)Nc2sc3c(c2C#N)CCC(C)C3)c1 (stereo unspecified) | 104 | 93 | 105 | -18
CC(=O)Nc1ccc(NS(=O)(=O)c2ccc(-c3csc(C)n3)s2)cc1 | 120 | 86 | 99 | -26
CCN(CC)c1nc2ccccc2n(Cc2cccc(OC)c2)c1=O | 98 | 90 | / | -12
COc1ccc(CCNc2ncnc3c2oc2ccccc23)cc1 | 92 | 90 | / | -33
COc1ccc(Br)cc1CNC(=O)CCc1ccc(-n2cnc3cccnc32)cc1 | / | / | 124 | -4
COc1ccc(CCNC(=O)CCCn2nc(C)c3sc4ccccc4c3c2=O)c(OC)c1 | 101 | 89 | 104 | -14
CCOC(=O)CSc1nc2c(C)ccc(C)c2cc1C#N | 105 | 106 | 107 | 8
N#C/C(=C(/O)CSc1nnc(Cc2cccs2)n1C1CCCCC1)c1nc2ccccc2[nH]1 | 111 | 95 | / | 6
Cc1ccc(-n2nc(C)c3c(C)c(CCC(=O)NCc4cccc(Cl)c4)c(C)nc32)cc1C | 86 | 95 | 109 | 12
COC(=O)c1ccccc1NC(=O)C(C)C | 79 | 105 | 107 | -14
O=C(c1[nH]c2ccccc2c1Sc1ccc(Cl)cc1)N1CCCCC1 | 98 | 83 | 96 | -25
COc1ccc(NCc2nnc(SCC(=O)c3ccc(C)cc3)o2)cc1 | 80 | 82 | 106 | -39
O=C(Nc1c(Cl)cccc1Cl)c1cc(-c2ccc3c(c2)OCO3)on1 | 109 | 91 | 105 | 5
COCc1cc(C)nc(SC)c1C#N | 89 | 103 | 100 | -5
Cn1c(=O)n(C)c2cc(N3CCOCC3)c(NC(=O)c3ccccc3Br)cc21 | 94 | 85 | 105 | -9
CCCCN1CC(=O)N(c2cc(C)cc(C)c2)[C@@H]2CS(=O)(=O)C[C@@H]21 | / | / | 105 | -14
Cc1ccc(N2C(=O)c3ccc(C(=O)NCCN4CCOCC4)cc3C2=O)cc1 | 105 | 83 | 101 | -24
COc1ccc(C(CNC(=O)COc2ccc(Cl)c(C)c2)N2CCOCC2)cc1 (stereo unspecified) | 97 | 83 | 101 | -19
Cc1cc(Br)ccc1NC(=O)c1sc2ncn(Cc3ccccc3Cl)c(=O)c2c1C | 116 | 85 | 102 | /
O=C(Oc1ccc(-c2nnco2)cc1)c1sc2ccccc2c1Cl | 104 | 83 | / | -24
CC(=O)NS(=O)(=O)c1ccc(NC(=O)[C@@H]2CCCC[C@@H]2C(=O)O)cc1 | 95 | 90 | 110 | -5
O=C(OCc1cc(=O)n2c(n1)sc1ccccc12)c1ccccc1 | 88 | 67 | / | -18
O=c1c2n[nH]c(=O)n2ccn1-c1ccccc1 | / | / | 101 | -33
Nc1nc(OCC(F)(F)F)nc(OCC(F)(F)F)n1 | 111 | 96 | 101 | -13

Fetched one by one from above (5):
SMILES | Sa growth 42C | Sa growth 42C second temp | GIV Gai3 FP | HCMV NEC inh
CCCCN1CC(=O)N(c2cc(C)cc(C)c2)[C@@H]2CS(=O)(=O)C[C@@H]21 | / | / | 105 | -14
COC(=O)c1ccccc1NC(=O)C(C)C | 79 | 105 | 107 | -14
O=C(OCc1cc(=O)n2c(n1)sc1ccccc12)c1ccccc1 | 88 | 67 | / | -18
CCOC(=O)CSc1nc2c(C)ccc(C)c2cc1C#N | 105 | 106 | 107 | 8
O=c1c2n[nH]c(=O)n2ccn1-c1ccccc1 | / | / | 101 | -33

New compounds follow:
SMILES | Sa growth 42C | Sa growth 42C second temp | GIV Gai3 FP | HCMV NEC inh
O=C(Cc1ccc2c(c1)OCCO2)N1CCc2ccccc21 | 85 | 108 | / | -6
COc1ccc(CC(=O)Nc2nc(-c3ccccc3)ns2)cc1 | / | / | 103 | 0
CCSCc1nc2ccccn2c1Br | 114 | 99 | / | 8
CCCCN(C(=O)C1CCCO1)c1ccccc1 (stereo unspecified) | 102 | 99 | 107 | -28
CCN(CC)c1cc2c(cc1F)c(=O)c(S(=O)(=O)c1ccc(OC)cc1)cn2Cc1ccccc1 | 80 | 81 | 109 | /
CCOc1ccccc1NC(=O)c1cnc(N2CCOCC2)c2ccccc12 | 88 | 95 | 110 | /
COc1ccccc1NC(=O)C1=C(C)Nc2nc(SCc3ccccc3F)nn2C1c1cccnc1 (stereo unspecified) | 118 | 92 | 106 | -56
CCOc1cccc(/C=N/NC(=O)c2ccncc2)c1O | 95 | 84 | 118 | -56
Cc1[nH]ccc(=O)c1Oc1ncc(C(F)(F)F)cc1Cl | / | / | 103 | 3
Oc1c(C(c2ccccn2)N2CCCCC2)ccc2cccnc12 (stereo unspecified) | 53 | 14 | / | -48
CCC(C(=O)Nc1ccc(C(C)=O)cc1)n1cnc2nc3c(cc2c1=O)CCCC3 (stereo unspecified) | 76 | 82 | 107 | /
Cc1nn(C(=O)Nc2ccc(F)cc2F)c2ccccc12 | / | / | 99 | -5
O=C(O)c1cccc2c(CN3CCN(C(c4ccccc4)c4ccccc4)CC3)c[nH]c12 | 86 | 100 | 102 | 7
COc1ccc(NC(=S)N2CCN(Cc3c(C)nn(C)c3C)CC2)cc1OC | 99 | 92 | 103 | 3
CCCn1c(=N)c(C(=O)NC(C)c2ccccc2)cc2c(=O)n3ccccc3nc21 (stereo unspecified) | 107 | 84 | 101 | /
OC1(C#CC#CC2(O)CCCCC2)CCCCC1 | 75 | 92 | 98 | -6
CCOc1cccc(C(=O)N(Cc2ccc(C)o2)C2CCS(=O)(=O)C2)c1 (stereo unspecified) | 114 | 87 | 98 | 0
CCc1nnc2n1NC(c1ccc(Cl)cc1)C(C(=O)Nc1cc(C)cc(C)c1)S2 (stereo unspecified) | / | / | 102 | -4
COc1ccc(-c2cc(C(F)F)nc(NN)n2)cc1 | 69 | 56 | 102 | -16
Cc1nc(N(C)C)cc(N2CCN(C(=O)Nc3ccc(Cl)cc3)CC2)n1 | / | / | 99 | -16
O=C(O)C(Sc1nncc2ccccc12)c1ccccc1 (stereo unspecified) | / | / | 94 | -27
O=C(OCC(=O)N1CCCC1)c1ccc(O)cc1 | 113 | 86 | / | -27
COc1ccc(C)cc1NCc1ccccc1C | 88 | 83 | / | -11
O=C(NCc1ccc2c(c1)OCO2)c1sc(=S)n2c1[nH]c(=O)c1ccccc12 | 55 | 32 | 109 | /
CCOC(=O)N1CCC2(CC1)OC(=O)C(C)=C2C(=O)NCCc1ccc(Cl)cc1 | 106 | 86 | 105 | -26
Continuation:
SMILES | Sa growth 42C | Sa growth 42C second temp | GIV Gai3 FP | HCMV NEC inh
CCNc1nc(NC(C)C)nc(OCCOC(C)=O)n1 | 107 | 108 | 98 | -11
O=C(O)COc1ccc2c(c1)C(=O)CC1(CCCCC1)O2 | 121 | 103 | 99 | -12
CCOc1ccc(NC2=NC(c3cccnc3)n3c(nc(C)cc3=O)N2)cc1 (stereo unspecified) | / | / | 105 | -7
O=C(O)C1CC(=O)N(CCN2CCCCC2)C1 (stereo unspecified) | / | / | 103 | -27
CCc1ccc(NC(=O)c2ccc(Cn3nc(N4CCN(c5ccccc5)CC4)ccc3=O)o2)cc1 | 104 | 87 | 105 | /
CCC(Sc1nc2ncccc2o1)C(=O)Nc1ccccc1C(F)(F)F (stereo unspecified) | 100 | 81 | 100 | -10
Cc1cc(-c2ccsc2)n[nH]c1=O | 91 | 85 | 106 | -78
CCOC(=O)c1cn2c3c(c(F)c(F)cc3c1=O)OCC2C (stereo unspecified) | 101 | 92 | / | -8
CCC(C(=O)Nc1cc(Cl)ccc1OC)n1c(C(=O)OC)cc2ccsc21 (stereo unspecified) | / | / | 99 | 3
O=C(Nc1nc(-c2ccc(Br)s2)ns1)c1ccc(Br)o1 | / | / | 110 | -15
CCOC(=O)C1CCCN(S(=O)(=O)c2ccc(F)c(C(=O)Nc3ccc(F)c(F)c3)c2)C1 (stereo unspecified) | 93 | 94 | 102 | /
Nc1nc(-c2ccccc2)nc(-c2ccccc2O)n1 | 95 | 72 | 103 | -3
CC(=O)Nc1ccc2nc3c(cc2c1)[nH]c1ccccc13 | 114 | 94 | 102 | /
Cc1cc(NC(=O)COC(=O)COc2ccc3c(c2)CCC3)no1 | 92 | 97 | / | -12
O=C1Cc2cc(C(=O)CSc3ccc4c(c3)OCCCO4)ccc2N1 | 99 | 91 | / | 6
